From PubChem BioAssay
Vif TR-FRET = HIV-1 Vif–A3G interaction blockers – biochemical, TR-FRET, GST-Vif 1-94, biotin-A3G peptide, dose response retest, primary screen (AID 1117319); 0.57% of 260,000 active; inhibition, %; hits with a dose series show IC50 in µM; TR-FRET GST-Vif / biotin-A3G peptide binding; higher % means a stronger effect; test concentration not given here; strong numbers were not always called active;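 active = above the screen mean plus three standard deviations and confirmed in dose response; inconclusive = results disagree or hit not tested in dose response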;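 note: Vif residues 1-94 fused to GST binding biotinylated APOBEC3G peptide 110-148; 0% = full assay without inhibitor and 100% = GST in place of GST-Vif; retest series ran down from 100 µM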
ALR inh = human ALR oxidase inhibition via reduced H2O2. P55789. purified ALR, DTT oxidation, H2O2 HRP-luminol luminescence. inhibition, % (no concentration beside the values). 3.8% of 290,000 active;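 active = mean and each replicate at 75% or more; inconclusive = only one of the two met; inactive = neither met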;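 note: stock transfer was 7.5 nL into about 7.5 µL; 0% = neutral wells and 100% = wells with inactivated enzyme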
Target sequence (P55789 whole entry, looked up): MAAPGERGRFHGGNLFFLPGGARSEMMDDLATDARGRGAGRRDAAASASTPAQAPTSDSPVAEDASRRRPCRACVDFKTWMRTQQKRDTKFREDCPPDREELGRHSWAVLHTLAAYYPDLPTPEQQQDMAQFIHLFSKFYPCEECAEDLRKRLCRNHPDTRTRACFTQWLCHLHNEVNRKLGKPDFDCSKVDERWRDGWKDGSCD
FGF22 binding = FGF22 (human) thermal shift binding. 1.5% of 340,000 active. recombinant FGF22 thermal shift, SYPRO orange fluorescence; percent of sucrose octasulfate shift, DMSO zero. AID 651658. calls only at 9.99 µM;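 active = melting point raised past a set limit in the mean and every replicate; inconclusive = no clear call; three in four hits are not shown here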
Target sequence (Q9HCT0 whole entry, looked up): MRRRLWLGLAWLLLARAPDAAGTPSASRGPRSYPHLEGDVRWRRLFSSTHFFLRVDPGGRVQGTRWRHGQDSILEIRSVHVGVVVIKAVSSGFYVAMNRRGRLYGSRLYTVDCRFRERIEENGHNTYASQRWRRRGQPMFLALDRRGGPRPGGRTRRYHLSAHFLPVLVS
HNF4A DNA FP = change in binding of human HNF4 alpha to DNA; HNF4a-FITC DNA binding, fluorescence polarization, 1 h; activity change, % at 10 µM; 0.3% of 360,000 active; in the data active = activity change above about 30%, passing the limit was not always enough;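 note: controls were the assay level and a saturating level of protein; the project sought stronger binding though the title names inhibitors; some compounds called inactive have numbers as strong as hits; positive values seem to mean higher polarization but the record does not say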
Target sequence (P41235 whole entry, looked up): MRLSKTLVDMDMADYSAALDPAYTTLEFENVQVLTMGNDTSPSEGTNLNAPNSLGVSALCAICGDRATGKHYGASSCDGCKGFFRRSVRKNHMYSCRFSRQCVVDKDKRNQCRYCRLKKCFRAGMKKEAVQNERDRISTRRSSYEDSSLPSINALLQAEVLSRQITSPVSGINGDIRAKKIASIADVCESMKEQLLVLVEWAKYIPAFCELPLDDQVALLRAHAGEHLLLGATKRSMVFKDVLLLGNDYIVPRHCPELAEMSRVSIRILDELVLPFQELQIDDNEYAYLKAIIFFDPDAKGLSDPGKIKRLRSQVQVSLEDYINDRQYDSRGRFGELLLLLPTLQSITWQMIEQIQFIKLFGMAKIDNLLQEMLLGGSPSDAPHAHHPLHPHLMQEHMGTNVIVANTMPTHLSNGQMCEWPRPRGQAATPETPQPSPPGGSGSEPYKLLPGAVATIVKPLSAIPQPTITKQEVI
AF4-AF9 inh = MLL-AF4/AF9 protein interaction inhibition. AlphaScreen, biotin-AF4 peptide binding to FLAG-AF9. inhibition, % at 10 µM. 0.47% of 350,000 active. AID 651704;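 active = every replicate reaching a set inhibition limit, whatever the replicate mean, cut at about 25% in these data; inconclusive = mean inhibition reaches that limit but some replicates miss it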;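 note: 0% = plate neutral control median and 100% = total signal loss; the record names both 10 and 1 µM as test concentration; the first replicate is given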
E coli growth = inhibitors of Escherichia coli growth; OD600 absorbance (no concentration beside the values); 0.21% of 330,000 active; AID 1053175; OD600, 23 h; active compounds read low;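 active = OD600 absorbance below the run mean of sample wells minus 3.6 SD, in any replicate, cut at about 0.56 in these data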;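 note: stock transfer was 300 nL into about 60 µL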
rRNA inh HTS = selective bacterial rRNA inhibition in E. coli; GFP signal change (wild-type ribosome), % (test concentration not listed); 1.6% of 350,000 active; AID 720706; E. coli WT GFP vs humanized-ribosome RFP mutants, fluorescence, 24 h; active compounds read low; DMSO median 0, no signal -100;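 active = significant combined selectivity score with lowered wild-type GFP, culture density cut under 30%, mutant RFP and density less affected; inactive = any of these conditions unmet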; note: one replicate is shown; some compounds called inactive have numbers as strong as hits
rRNA inh HTS OD600 = second read-out of rRNA inh HTS, no call of its own (marks repeat the call); OD600 change, %; measured here: OD600 growth;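 optical density of the mix in the first replicate; 0 = DMSO median and -100 = no signal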
rRNA inh HTS RFP = recorded beside rRNA inh HTS, whose call it bears; RFP signal change, %; measured here: RFP humanized mutant strains;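 first replicate; 0 = DMSO median and -100 = no signal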
* marks the source's active call; other numbers are inactive results; i = inactive; ? = inconclusive; · = not tested or not shown; & = joins results of further samples.

SMILES	Vif TR-FRET	ALR inh	FGF22 binding	HNF4A DNA FP	AF4-AF9 inh	E coli growth	rRNA inh HTS	rRNA inh HTS OD600	rRNA inh HTS RFP
Cc1ccc(S(=O)(=O)N2CCC(=O)N(CCOC(=O)Nc3ccc(C)c(C)c3)CC2)cc1	?	4	i	-1.3	-17	0.65	-15	-22	9.1
O=C(O)COc1ccccc1-c1ccccc1	-1%	-2	i	2.3	-5.9	0.68	9	4	0.9
CSc1cccc(NC(=O)/C=C/c2ccccc2)c1	-1%	0	·	1.1	16	0.65	·	·	·
COC(=O)c1cc(N2CCNCC2)nc2ccccc12	15%	-3	i	-4.1	·	0.71	21	-3	2.2
CCOc1nc2cnccc2n(CC(=O)Nc2c(F)c(F)cc(F)c2F)c1=O	·	9	i	-0.1	-0.9	0.71	7	14	-0.8
Cc1ccc(NC(c2ccccc2)c2nc3ccccc3[nH]c2=O)cc1 (centres undefined)	·	-17	i	-1.0	-11	0.74	5	8	-1.7
CCN1CCCC1CNC(=O)C1CCCN(S(=O)(=O)c2cccc3nsnc23)C1 (centres undefined)	3%	-6	·	-0.3	·	0.74	·	·	·
COC(=O)C1=C(C)NC(C)=C(C(=O)OC)C1C(=O)OCCN1C(=O)c2ccccc2C1=O	-6%&7%	7	i	-3.6&-0.7	-4.1	0.7&0.71	-1	6	-0.2
O=C(COc1ccccc1[N+](=O)[O-])OCC(=O)N1CCC(Cc2ccccc2)CC1	?	-4	i	1.1	3.3	0.57	-16	-12	-11
CCOC(=O)c1c(NC(=O)C[n+]2ccc(N(C)C)cc2)sc(C)c1C	1%	18	i	-2.3	-1.8	0.62	12	12	-1.5
CCOC(=O)N1CCN(C2=CC(=O)OC23CCCCC3)CC1	6%	-2	·	-0.1	·	0.68	-5	-1	-0.6
CCC1CCCCN1CCCNC(=O)Cn1c(=O)c2cccn2c2ccccc21 (centres undefined)	·	-5	i	-2.1	0.1	0.7	14	6	3.6
Cc1noc(C)c1NC(=O)N(C)C[C@H]1OCCCC[C@@H](C)Oc2ccc(NC(=O)Nc3ccc(F)cc3)cc2C(=O)N([C@@H](C)CO)C[C@H]1C	-1%	·	i	-2.5	2.0&0.2	·	2&-1	-2&-1	-0.1&1.0
Cc1c(NC(=O)CC(C)C)c(=O)n(-c2ccccc2)n1C	?	-5	i	-3.0	2.6	·	15	9	0.7
Cc1cccc(OCCC(=O)Nc2c(C)n(C)n(-c3ccccc3)c2=O)c1	74%	-17	·	2.6	·	0.72	·	·	·
C[C@H](CO)N1C[C@H](C)[C@H](CN(C)CC2CC2)Oc2cc(Br)ccc2S1(=O)=O	·	·	i	·	-0.9	·	-1	-3	-2.6
O=C(O)COc1ccc(/C=N/Nc2nc(Nc3ccccc3)nc(N3CCCCC3)n2)cc1	10%	30	i	1.2	2.9	·	3	7	6.6
Cc1ccccc1C(=O)N1CCC(C(=O)NC(C)c2ccc(-n3ccnc3)cc2)CC1 (centres undefined)	4%	0	i	2.8	1.1	0.7	14	12	8.2
CCOc1ccc(C(=O)OC(C)C(=O)N2CCN(Cc3ccccc3)CC2)cc1 (centres undefined)	-13%	-5	i	-1.3	1.2	0.69	5	-17	1.3
C[C@@H]1CN([C@@H](C)CO)S(=O)(=O)c2ccc(C#Cc3ccncc3)cc2O[C@H]1CN(C)C(=O)C1CCC1	·	·	i	·	0.9	·	0	-14	-1.9
CC(C)(C)NC(=O)C1Cc2ccccc2CN1 (centres undefined)	·	5	·	0.4	0.5	0.68	10	13	-0.9
Cc1onc(-c2c(F)cccc2Cl)c1C(=O)Nc1c(C)n(C)n(-c2ccccc2)c1=O	20%	-9	·	-2.9	·	0.7	·	·	·
CC(C)(C)CNC(=O)C1(C)CCN1C(=O)Cc1ccc(-c2ccccc2)cc1 (centres undefined)	·	·	i	-1.7	-1.6	·	·	·	·
CCOC(=O)C1(CCc2ccccc2)CCN(C(=O)CCc2cnccn2)CC1	29%	-19	i	-4.1	0.0	0.68	15	7	3.1
CCN1[C@H](C(=O)N(C)C)[C@@H](CO)[C@@H]2Cn3c(ccc(/C=C/c4ccccc4)c3=O)[C@@H]21	·	·	i	·	-1.4	·	3	0	0.7

Some of these compounds in order of the E coli growth value, descending:
SMILES	Vif TR-FRET	ALR inh	FGF22 binding	HNF4A DNA FP	AF4-AF9 inh	E coli growth	rRNA inh HTS	rRNA inh HTS OD600	rRNA inh HTS RFP
CCN1CCCC1CNC(=O)C1CCCN(S(=O)(=O)c2cccc3nsnc23)C1 (centres undefined)	3%	-6	·	-0.3	·	0.74	·	·	·
Cc1cccc(OCCC(=O)Nc2c(C)n(C)n(-c3ccccc3)c2=O)c1	74%	-17	·	2.6	·	0.72	·	·	·
CCOc1ccc(C(=O)OC(C)C(=O)N2CCN(Cc3ccccc3)CC2)cc1 (centres undefined)	-13%	-5	i	-1.3	1.2	0.69	5	-17	1.3
CCOC(=O)C1(CCc2ccccc2)CCN(C(=O)CCc2cnccn2)CC1	29%	-19	i	-4.1	0.0	0.68	15	7	3.1

Continuation:
SMILES	Vif TR-FRET	ALR inh	FGF22 binding	HNF4A DNA FP	AF4-AF9 inh	E coli growth	rRNA inh HTS	rRNA inh HTS OD600	rRNA inh HTS RFP
CCOc1ccc(CCN2C(=S)N([C@@H](CC(C)C)CN3CCC[C@@H]3CN3C(=S)NC[C@@H]3CC(C)C)C[C@@H]2Cc2ccc(O)cc2)cc1	·	·	i	-3.5	6.0	·	3	1	-5.0
CCN(CC(=O)Nc1ccc(NC(C)=O)cc1)C(=O)c1cccc(S(=O)(=O)N2CCc3ccccc3C2)c1	-2%	5	i	0.8	-4.4	0.68	-6	-2	-1.7
O=C1NCC(NC(=O)C(F)(F)F)c2cc3c(cc21)OCO3 (centres undefined)	-3%	1	i	1.8	2.3	0.73	17	16	-1.1
O=C(c1cnccn1)N1CC[C@@H]2[C@H]1c1cc(-c3cccc(F)c3)ccc1N[C@@H]2CO	·	·	i	·	4.3	·	-7	3	4.2
COC(=O)C1=C(C)n2cnnc2NC1c1ccc(Cl)cc1 (centres undefined)	-1%	-5	·	1.1	-1.7	0.72	-2	-5	0.6
O=C(NCCc1ccccc1)[C@H]1[C@H](CO)[C@H]2Cn3c(cccc3=O)[C@@H]1N2CC1CC1	·	·	i	·	-0.3	·	4	4	-1.3
COc1ccc(C)cc1NC(=O)CN1C(=O)COc2ccc(S(=O)(=O)N3CCOCC3)cc21	·	-10	i	3.1	4.7	0.7	6	6	3.5
C#CCNC(=O)C1=C[C@@H](C2CC2)C[C@@H](OCCCCO)O1	-5%	-23	i	-1.8	-1.7&-13	·	1	-2	19
Nc1c(C(=O)NCC2CCCO2)sc2nc3c(c(-c4ccco4)c12)CC/C3=C\c1ccco1 (centres undefined)	·	·	i	-50	2.9	0.74	-4	56	0.7
C[C@@H]1CN([C@H](C)CO)C(=O)c2cc(NC(=O)c3ccncc3)ccc2O[C@@H](C)CCCCO[C@H]1CN(C)C(=O)Nc1ccc(F)cc1	·	·	i	·	0.0	·	0	5	0.6
CCCC(=O)Nc1ccc2c(c1)nc(CCN1CCCCC1)n2C	?	-24	i	0.3	1.2	0.69	1	11	3.4
COc1ccc(NC(=O)N(C)C[C@@H]2Oc3ccc(NC(=O)C4CC4)cc3C(=O)N([C@@H](C)CO)C[C@H]2C)cc1	·	·	i	·	-3.7	·	4	13	0.9
Cc1noc(C)c1NC(=O)N(C)C[C@H]1OCCCC[C@H](C)Oc2ccc(NC(=O)NC(C)C)cc2C(=O)N([C@@H](C)CO)C[C@H]1C	·	·	i	·	-2.4	·	4	4	-3.0
CC(C)CN1C(=O)CN(S(C)(=O)=O)CC1(C)C(=O)Nc1ccc2c(c1)OCCO2 (centres undefined)	·	·	i	-4.0	·	·	7	13	1.4
O=C(c1cnc2sccn2c1=O)N1CCCc2ccccc21	·	0	i	1.3	1.4	0.75	14	14	-1.7
COc1ccccc1C(N)=S	3%	-7	i	0.4	4.0	0.66	12	6	-0.2
O=C(Nc1ccc(S(=O)(=O)N2CCOCC2)cc1)c1ccccc1F	·	5	i	-2.0	-3.1	0.63	4	9	0.6
COc1ccc(/C=C2\CCCC(C(=O)C(F)(F)F)=C2O)cc1OC	4%	-1	·	·	·	0.62	·	·	·
O=C(CN(CC1CCCO1)C(=O)CNS(=O)(=O)c1ccc(Cl)cc1)NCc1ccc(F)cc1 (centres undefined)	-10%	·	i	4.1	-6.0	0.69	-5	-9	0.6
COc1ccc(/C(C)=N/NC(=O)c2ccccc2N)cc1	-12%	-9	i	-3.3	1.7	·	-13	1	-5.6
CSc1cccc(CN2CCN(CCc3ccccc3)C(CCO)C2)c1 (centres undefined)	13%	-8	i	0.0	2.7	0.69	3	2	0.6
CC(=O)Nc1cnc(-c2ccccc2C(C)=O)cn1	·	·	i	0.9	-1.2	·	8	12	-2.3
CCc1ccc(OCC(=O)N2CCN(c3ccccn3)CC2)c(Br)c1	·	-1	i	-2.3	1.6	0.69	-7	-19	3.8
Cc1noc(C)c1NC(=O)Nc1ccc2c(c1)C(=O)N([C@@H](C)CO)C[C@@H](C)[C@H](CN(C)S(=O)(=O)c1ccc(Cl)cc1)OCCCC[C@@H](C)O2	·	·	i	·	1.2	·	0	-12	3.5
O=C1C=C(c2ccc(-c3ccccc3)c(F)c2)C[C@@H](c2ccc(F)cc2)C1	·	4	i	-2.3	0.8	·	6	15	3.0

Single records, from the list above. Screens in order: Vif TR-FRET	ALR inh	FGF22 binding	HNF4A DNA FP	AF4-AF9 inh	E coli growth	rRNA inh HTS	rRNA inh HTS OD600	rRNA inh HTS RFP
O=C(CN(CC1CCCO1)C(=O)CNS(=O)(=O)c1ccc(Cl)cc1)NCc1ccc(F)cc1 (centres undefined) across the screens: -10%	·	i	4.1	-6.0	0.69	-5	-9	0.6
CSc1cccc(CN2CCN(CCc3ccccc3)C(CCO)C2)c1 (centres undefined) across the screens: 13%	-8	i	0.0	2.7	0.69	3	2	0.6

Additional records:
SMILES	Vif TR-FRET	ALR inh	FGF22 binding	HNF4A DNA FP	AF4-AF9 inh	E coli growth	rRNA inh HTS	rRNA inh HTS OD600	rRNA inh HTS RFP
COc1ccc(NC(=O)Nc2ccc3c(c2)C(=O)N([C@@H](C)CO)C[C@H](C)[C@@H](CN(C)Cc2ccc(C(=O)O)cc2)OCCCC[C@H](C)O3)cc1	·	·	i	·	1.0	·	-1	2	-2.8
COCC(=O)N1C[C@H](C)[C@@H](OC)CN(C)C(=O)c2cc(NC(=O)c3ccccc3)ccc2OC[C@H]1C	·	·	i	·	-6.9	·	2	-1	-0.3
O=C(NCc1ccc(Cl)nc1)c1csc([C@@H]2C[C@H](O)[C@@H](CO)O2)n1	·	·	i	0.0	-2.1	·	14	13	2.0
COc1ccc(CNC(=O)CN2C(=O)CC(c3ccccc3)=Nc3ccccc32)cc1	3%	·	i	4.0	1.3	0.7	13	5	1.9
COc1ccc2oc(=O)c(-c3csc(Nc4cccc(O)c4)n3)cc2c1	-2%	-15	·	4.4	·	0.7	·	·	·
COc1ccc2nc(COC(=O)c3cccc([N+](=O)[O-])c3)c(C(C)=O)[n+]([O-])c2c1	7%	31	i	-0.1	-0.4	0.65	·	·	·
COc1ccc(NC(=O)Nc2ccc3c(c2)CC(=O)N([C@H](C)CO)C[C@@H](C)[C@@H](CN(C)Cc2ccc(C(=O)Nc4ccccc4N)cc2)O3)cc1	·	·	i	·	-3.3	·	-2	2	-1.1
CCOc1ccccc1OCCCC(=O)NC1CCCc2ccccc21 (centres undefined)	28%	-4	i	1.0	2.0	0.68	-16	-20	-10
COc1cc(OC)cc(-c2nc(N)n[nH]2)c1	-2%	24	·	-3.1	·	0.78	·	·	·
O=C(CS(=O)(=O)c1ccccc1)NC1CCCCC1	7%	·	i	-1.8	0.2	0.72	·	·	·
Cc1cccc(-n2ncc(C#N)c2N)c1	7%	-3	·	7.0	·	0.66	·	·	·

A portion of the library; rates above refer to the full screens.
